Bioassay records from PubChem.
KCNQ2 block: KCNQ2 channel blockers in CHO-K1 cells – cell-based, FluxOR thallium flux, B-score, primary screen (AID 2156) | O88943 | 20 min; hits give low values; only compounds with negative scores are shown here; some inactives read as strong as hits | B-score at 10 µM | hit rate 1.1% among 310,000;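 active = fluorescence ratio B-score at most minus 3 library SDs, with starting brightness B-score within 2 library SDs, cut at about -5.5 in these data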
Target sequence (O88943 whole entry, looked up): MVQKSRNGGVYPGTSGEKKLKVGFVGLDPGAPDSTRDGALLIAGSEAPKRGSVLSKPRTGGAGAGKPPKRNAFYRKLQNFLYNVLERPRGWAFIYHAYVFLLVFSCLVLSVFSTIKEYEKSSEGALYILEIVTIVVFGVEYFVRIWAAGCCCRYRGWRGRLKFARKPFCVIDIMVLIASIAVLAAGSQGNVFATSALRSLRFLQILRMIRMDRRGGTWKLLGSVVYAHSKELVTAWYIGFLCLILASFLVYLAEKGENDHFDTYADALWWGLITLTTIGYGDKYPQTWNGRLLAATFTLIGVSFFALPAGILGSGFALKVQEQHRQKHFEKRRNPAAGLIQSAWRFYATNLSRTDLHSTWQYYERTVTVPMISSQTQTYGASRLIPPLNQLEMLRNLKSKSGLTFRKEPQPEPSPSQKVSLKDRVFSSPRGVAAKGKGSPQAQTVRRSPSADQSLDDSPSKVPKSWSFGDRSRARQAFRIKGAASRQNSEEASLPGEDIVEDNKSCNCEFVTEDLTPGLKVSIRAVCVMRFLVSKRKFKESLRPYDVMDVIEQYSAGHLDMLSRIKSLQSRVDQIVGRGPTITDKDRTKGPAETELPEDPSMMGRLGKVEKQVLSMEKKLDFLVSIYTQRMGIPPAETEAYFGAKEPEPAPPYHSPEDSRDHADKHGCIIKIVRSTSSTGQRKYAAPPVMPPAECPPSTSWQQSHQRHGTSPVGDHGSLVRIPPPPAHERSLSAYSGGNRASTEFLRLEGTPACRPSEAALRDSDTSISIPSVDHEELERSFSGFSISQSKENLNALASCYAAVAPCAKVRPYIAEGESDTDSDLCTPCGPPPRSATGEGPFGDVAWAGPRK
KCNQ2 block baseline: further read-out of KCNQ2 block, marked with its call; B-score; measured here: initial fluorescence intensity artifact check;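 brightness before thallium and not channel activity; 0 = typical well and far values either way flag optical interference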
* marks the source's active call; other numbers are inactive results; i = inactive. Not all compounds are listed, so the mix of outcomes need not match the whole.

Values in the order: KCNQ2 block, KCNQ2 block baseline
> CSc1ccc(S(=O)(=O)N(C)Cc2ccccc2)cc1
  i, -0.59
> c1cn(CC2(Cn3ccnc3)COC2)cn1
  i, 0.26
> COC(OC)c1ccc(C#N)c(SCc2ccccc2)n1
  i, 5.4
> CN(Cc1ccccc1)C1CCN(Cc2ccccc2[N+](=O)[O-])CC1
  i, -0.09
> Cc1noc(C)c1S(=O)(=O)N1CCCC(C(=O)N2CCc3ccccc3C2)C1 (stereo not given)
  i, -0.31
> O=C(COc1ccc(Cl)cc1Cl)Nc1ccc(CN2CCCCC2)cc1
  i, 0.44
> CSc1ccccc1OCc1cc(C(=O)N2CCN(c3ccccc3)CC2C)no1 (stereo not given)
  i, -1.2
> Cc1cc(Cl)ccc1OCC(=O)N1CC(C)CC(C)C1 (stereo not given)
  i, 0.71
> O=C(NC(=S)NC1CCS(=O)(=O)C1)c1cccs1 (stereo not given)
  i, -0.8
> Cc1nc2ccc(C(=O)N3CCSCC3)cc2s1
  i, 0.81
> C=C1CCN([C@@H](CC(C)C)C(=O)NCc2ccc(Cl)c(Cl)c2)S(=O)(=O)c2ccccc21
  i, -0.23
> Cc1c(NC(=O)NCc2ccccc2)c(=O)n(-c2ccccc2)n1C
  i, -0.62
> O=C(/C=C/Nc1cccc([N+](=O)[O-])c1)c1ccco1
  i, 0.2
> COC(=O)C1=C(C(=O)OC)C2C(C)=CC(C)=CN2C(C(=O)OC)=C1C(=O)OC (stereo not given)
  i, 0.96
> CCC(C(=O)NC1CCCCC1)n1c(SCc2ccccc2F)nc2ccncc21 (stereo not given)
  i, -0.76
> Cc1cc(C)cc(-n2c3nc4ccccc4nc3c3c(=O)n(Cc4ccco4)cnc32)c1
  i, -1.6
> Cc1ccc(NC(=O)NC(=O)N(C2CCCCC2)S(=O)(=O)c2ccccc2)cc1
  i, -0.85
> CCCc1nc2ccccc2c(=O)n1-c1c(C)n(C)n(-c2ccccc2)c1=O
  i, 0.07
> O=C1c2ccccc2C(=O)N1CCSc1nnc(-c2ccco2)n1Cc1ccccc1
  i, 0.33
> O=C(COc1ccc2ccc(=O)oc2c1)NCC(O)c1ccccc1 (stereo not given)
  i, -1.3
> Cn1c(=O)n(C)c2cc(/C=N/N=C3/NC(=O)C(CC(=O)O)S3)ccc21 (stereo not given)
  i, 1.1
> C=CCSc1nc(N2CCOCC2)c2c(c1C#N)CC(C)(C)N(C)C2
  i, -0.08
> CS(=O)(=O)n1nc(OC(=O)c2cc(Br)ccc2Cl)cc1N
  i, 0.44
> O=C1CC(N2CCN(c3ccccc3F)CC2)C(=O)N1c1ccc2c(c1)OCCO2 (stereo not given)
  i, -0.56
> O=S(=O)(c1cccc(-c2nnc3n2CCCCC3)c1)N1CCCC1
  i, -0.02
> O=C(C[n+]1cccc(O)c1)NCc1ccc(Cl)cc1
  i, -1.2
> CCOC(=O)Nc1ccc(S(=O)(=O)NC2CCCCC2)cc1
  i, 1.5
> CC(=O)Nc1ccc(C2=NN(CC#N)C(=O)SC2)cc1
  i, 1.5
> CN(C(=O)CNC(=O)c1ccc(Br)o1)C1CCCCC1
  i, -0.58
> Cc1cccc(C)c1OCC(=O)Nc1cccc(S(=O)(=O)N2CCCC2)c1
  i, 0.71

Four compounds drawn at random from those above, as already listed:
Values in the order: KCNQ2 block, KCNQ2 block baseline
> Cn1c(=O)n(C)c2cc(/C=N/N=C3/NC(=O)C(CC(=O)O)S3)ccc21 (stereo not given)
  i, 1.1
> CCCc1nc2ccccc2c(=O)n1-c1c(C)n(C)n(-c2ccccc2)c1=O
  i, 0.07
> O=S(=O)(c1cccc(-c2nnc3n2CCCCC3)c1)N1CCCC1
  i, -0.02
> CN(C(=O)CNC(=O)c1ccc(Br)o1)C1CCCCC1
  i, -0.58

The list continues.
Values in the order: KCNQ2 block, KCNQ2 block baseline
> Cc1ccc(C)n1CCN1CCN(C(=O)c2ccco2)CC1
  i, 1
> Cc1csc(Nc2nc(N)c(C(=O)Nc3cc(Cl)ccc3F)o2)n1
  i, -1.6
> CCN(CC)CCN(Cc1cc2cc(C)c(C)cc2[nH]c1=O)C(=S)NCc1ccco1
  i, 0.66
> O=C(NCCN1CCN(c2ccccc2)CC1)c1cccc(Cl)c1
  i, -1.2
> COc1cc(C(=O)NC2CCN(CC(=O)NC3CCCCC3)CC2)cc(OC)c1OC
  i, -1.1
> CCCCOC(=O)Nc1nc(C)c(C(=O)OCC)s1
  i, 0.77
> O=C(/C(=N\O)n1cncn1)c1ccc(Br)cc1Br
  i, -0.43
> CC(C)(C)c1ccc(C(=O)NCc2nnc(SCC(=O)NC3CCCC3)o2)cc1
  i, -0.63
> CCOc1ccc(N/C(C)=C/C(=O)c2ccc3c(c2)OCCO3)cc1
  i, 1.1
> O=C(c1cnn(C(=O)COc2ccccc2F)c1)c1cc(F)ccc1O
  i, 0.79
> COc1ccc(/C=C(\NC(=O)c2ccccc2)C(=O)OC[C@@H]2CCC[N+]3(C)CCCCC23)cc1OC (stereo not given in full)
  i, 2.4
> CC(/C(O)=C(\C#N)c1nc2ccccc2n1C)N1C(=O)c2ccccc2C1=O (stereo not given)
  i, 1.1
> CCN(CC)CCCNC(=S)N1CCN(c2nc(-c3ccccc3)cs2)CC1
  i, 0.54
> Cc1ccc(C)c(C(=O)CN2C(=O)NC3(CCC(C)CC3)C2=O)c1 (stereo not given)
  i, -0.1
> O=C(COc1ccc(S(=O)(=O)N2CCCCC2)cc1)NCc1ccccn1
  i, 0.19
> COc1ccc(OC)c(C2=Nn3c(nnc3-c3cc(C)[nH]n3)SC2)c1
  i, -0.34
> CCN(Cc1ccccc1)C(=O)Cn1c(=O)n(-c2ccc(OC)cc2OC)c(=O)c2c(C)c(C)sc21
  i, 0.08
> CC(C)(C)NC(=O)Cn1c(=O)c(=O)n(Cc2ccccc2)c2ccc(Cl)cc21
  i, 1.5
> CCOC(=O)c1c(C)noc1-c1ccc(Br)o1
  i, -1.8
> COc1ccc(OC(C)C(=O)N2CCc3ccccc3C2)cc1 (stereo not given)
  i, -0.67
> CN1CCN(S(=O)(=O)c2ccc(NC(=O)COc3ccccc3Cl)cc2)CC1
  i, -2.8
> COC(CN(C)C(=O)c1ccc(CS(=O)(=O)c2ccccc2C)o1)OC
  i, -0.01
> CSc1cc(-c2ccccc2)n(Cc2ccccc2Cl)c(=O)c1C#N
  i, -0.11
> Oc1ccc(-c2cccc(-c3ccc(O)cc3)c2)cc1
  i, 1.7
> Clc1cccc(-c2csc(Nc3cccnc3)n2)c1
  i, 3.5
> CC(=O)c1cccc(NC(=O)Nc2cccs2)c1
  i, -1.7
> CC(=O)N1CCN(c2cccc(C)c2C)CC1
  i, -0.03
> COc1ccc(S(=O)(=O)NC2CC(C)(C)NC(C)(C)C2)c(C)c1C
  i, -2.1
> COc1ccccc1-n1c(SCC(=O)O)nc2sc3c(c2c1=O)CCC3
  i, -0.49
> CC(C(=O)N1CCCCC1)N(C)CC(=O)Nc1ccc(Cl)cc1 (stereo not given)
  i, 2.9

An excerpt of these results, with the structure last.
KCNQ2 block | KCNQ2 block baseline | Structure
i | -0.58 | CN(C(=O)CNC(=O)c1ccc(Br)o1)C1CCCCC1
i | -1.7 | CC(=O)c1cccc(NC(=O)Nc2cccs2)c1
i | -0.59 | CSc1ccc(S(=O)(=O)N(C)Cc2ccccc2)cc1
i | -1.8 | CCOC(=O)c1c(C)noc1-c1ccc(Br)o1
i | 3.5 | Clc1cccc(-c2csc(Nc3cccnc3)n2)c1
i | -0.23 | C=C1CCN([C@@H](CC(C)C)C(=O)NCc2ccc(Cl)c(Cl)c2)S(=O)(=O)c2ccccc21

Following part:
Values in the order: KCNQ2 block, KCNQ2 block baseline
> COc1cc(NS(=O)(=O)c2c(C)[nH]c(C)c2C(=O)N2CCCC2)cc(OC)c1OC
  i, -1.4
> CC(C)c1ccc(/C=C/C(=O)NC(=S)Nc2ccc(CN3CCOCC3)cc2)cc1
  i, -0.07
> Cc1cc(C)c(NC(=O)C2CCCO2)c(C)c1NC(=O)C1CCCO1 (stereo not given)
  i, 0.11
> N=C1/C(=C/c2cccn2CCOc2ccccc2)C(=O)N=C2SC=C(c3ccccc3)N12
  i, -0.43
> CC1CCN(C(=O)/C(=C\c2cccs2)NC(=O)c2ccccc2)CC1
  i, -1.1
> Cc1nn(C)c(C)c1S(=O)(=O)N1CCCC(C(=O)NC2CCCCCC2)C1 (stereo not given)
  i, 0.01
> CC(C)(C)c1[nH]nc2c1C(c1ccccc1OC(=O)N1CCOCC1)C(C#N)=C(N)O2 (stereo not given)
  i, 1.2
> CCCCNC(=O)CCCN1C(=O)c2cccnc2Sc2ccccc21
  i, -1.2
> CCOC(=O)c1cc(-c2ccccc2)sc1NC(=O)C(C)Sc1nnc(N)s1 (stereo not given)
  i, 1.1
> Cc1cc(C)cc(N2C(=O)CN(Cc3sccc3C)C2=S)c1
  i, 0.07
> COC(=O)C1=C(CSc2nccn2C)NC(=O)NC1c1cc(C)ccc1C (stereo not given)
  i, 0.07
> CCCC1C2C(=O)N(c3cccc(C)c3)C(=O)C2ON1c1ccccc1 (stereo not given)
  i, -0.27
> CCC(C)/C(C)=N/NC(=O)CNS(=O)(=O)c1ccc([N+](=O)[O-])cc1 (stereo not given)
  i, 0.67
> CC(O)C(=O)N/N=C/c1ccccc1C(=O)O (stereo not given)
  i, 0.39
> CC(C)=CCc1c(-c2ccc(O)cc2O)oc2c3c(cc(O)c2c1=O)OC(C)(C)C=C3
  i, 0.45
> O=C(Cc1ccccc1[N+](=O)[O-])OCN1C(=O)c2ccccc2C1=O
  i, 0.18
> Cc1cc(C)cc(SCc2noc(C(=O)NC(C)C)c2C(=O)NC(C)C)c1
  i, 0.01
> O=c1c2c(ncn2C2CCCC2)n(Cc2ccccc2)c(=O)n1CCOc1ccc(Br)cc1
  i, -0.76
> CCN(CC)S(=O)(=O)c1cccc(N=Nc2c(O)c3ccccc3oc2=O)c1
  i, -0.73
> CCNC(=O)CC1C(=O)N(c2cccc(OC)c2)C(=O)N1CCOC (stereo not given)
  i, -0.61
> CCOc1ccc(S(=O)(=O)N/N=C2/CC(c3ccccc3)Oc3ccccc32)cc1 (stereo not given)
  i, 0.42
> CC(=O)Oc1ccc(-c2csc(Nc3ccc(Cl)cn3)n2)cc1
  i, -0.96
> CC(C)CC1NC(=O)N(Cc2nc3ccccc3s2)C1=O (stereo not given)
  i, -0.34
> O=C(CN1c2ccccc2Sc2ccccc21)N/N=C/c1ccc(Cl)cc1
  i, -0.13
> O=C(Nc1cccc2ncccc12)c1cc(Br)ccc1Cl
  i, 1.6
> COc1ccc(C(=O)C2CCCN(Cc3ccc4c(c3)OCCO4)C2)cc1F (stereo not given)
  i, 0.03
> CCP(=O)(c1ccccc1)C(C)(C)O (stereo not given)
  i, 0.25
> CN1CCN(c2ccccc2NC(=O)c2ccc(-c3ccc(Cl)c(Cl)c3)o2)CC1
  i, -0.01
> CC(C)c1ccc2oc(=O)cc(CN3CCN(Cc4ccccc4)CC3)c2c1
  i, -0.28
> Cc1nc2ccc(Br)cc2c(=O)n1Cc1cccs1
  i, 0.09
> O=C(Cn1cc2c(n1)CCCCC2)Nc1ccccc1Cl
  i, 0.58
> O=C(OCCCN=C1NS(=O)(=O)c2ccccc21)c1ccccc1F
  i, -1.1
> CC1SC(c2cccc(Cl)c2)NC1=O (stereo not given)
  i, 2
> Cc1nnc(SCC(=O)c2ccc([N+](=O)[O-])cc2)s1
  i, 0.41
> Cn1c(SCc2cccc(Br)c2)nc2c1c(=O)[nH]c(=O)n2C
  i, 2.3
> Cc1ccc2c(c1)c1c3n2CCN(CCC(=O)O)C3CCC1 (stereo not given)
  i, -0.21
> O=c1c(-c2ccccc2)c(O)cc(-c2ccncc2)n1-c1ccc(Cl)cc1
  i, 0.28
> Oc1ccccc1C1=Nc2ncnn2C(c2ccc(F)cc2)C1 (stereo not given)
  i, 0.85
> COCCN(Cc1cc2c(C)cc(C)cc2nc1Cl)C(=O)c1ccccc1F
  i, -0.05
> Cc1c(C(=O)Nc2cccc(Cl)c2)cn2c(nc3ccccc32)c1C#N
  i, 1.6
> COC(=O)C1(Cc2ccccc2)NC(c2ccccc2C)C2C(=O)N(c3ccc4c(c3)OCO4)C(=O)C21 (stereo not given)
  i, 0.72
> O=C(N/C(=C/c1ccc(Cl)cc1)C(=O)N1CCCCC1)c1ccco1
  i, -0.02
> Oc1cccc(NC(=S)Nc2ccccc2)c1
  i, -1.1
> CCOC(=O)C(=O)/C(C#N)=C/Nc1ccc(Cl)cc1
  i, 2.7
> CCN(CC)C(=O)c1cnn(-c2ccccc2)c1NC(=O)c1ccccc1F
  i, 0.08
> Cn1c(SCC(=O)NCc2ccc(F)cc2)ncc(C(=O)Nc2ccccc2)c1=O
  i, 0.24
> COc1ccc(NC(=O)Cn2nnc(-c3ccccc3NC(=O)c3cccs3)n2)cc1
  i, 0.54
> CCOc1ccc(/C=C/C2=CC(C)(C)NC(=S)N2)cc1
  i, -0.71
> CCOc1ccc(S(=O)(=O)N2CCN(c3ccc(C)cc3C)CC2)cc1
  -7*, 1*
> CN(C)c1ccc(N=Nc2ccccc2C(=O)OCC(=O)N2CCCCCC2)cc1
  i, 2.7
> Fc1ccccc1Cn1c2[n+](c3ccc(C(F)(F)F)cc31)CCCCC2
  i, 2.4
> Cn1cc(S(=O)(=O)NC(c2ccccc2)c2ccccc2)c(=O)n(C)c1=O
  i, 2.4
> CC(C)=CCc1c(O)ccc(C(=O)Cc2ccccc2)c1O
  i, -0.72
> Cc1ccc(C(=O)NCCOc2ccc(Cl)cc2)cc1
  i, 0.03
> NS(=O)(=O)c1cc2c(cc1Cl)NC(CC1CCCC1)NS2(=O)=O (stereo not given)
  i, 1.2
> COc1cc(NC(=S)Nc2ccccn2)cc(OC)c1
  i, 0.04
> O=C(Cn1nc(Cl)nc1Cl)c1ccccc1
  i, 0.85
> CCCOC(=O)c1ccc(NC(=O)CC(C)(C)C)cc1
  i, 0.12
